Bioassay records deposited in PubChem by several laboratories.
VCAM-1 up – enhancers of VCAM-1 display on endothelial cells, cell-based, plate reader, pooled HUVEC, TNFa stimulus (AID 455). augmentation, % at 5 µM. HUVEC TNFa-induced VCAM-1 immunofluorescence, plate reader; numbers were filed only for top-ranked candidate wells. hit rate 0.2% among 10,000;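 active means a compound raising TNF-alpha-driven VCAM-1 surface staining, with its hit status upheld on visual or statistical review; inactive means the rest, including hits rejected on review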;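 further: 0% = TNFa with vehicle and 100% = strongest image-checked hit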
26S disassembly – inhibitors of ATP-driven 26S proteasome dissociation, primary screen, biochemical, bead-based flow cytometry, GFP-tagged proteasome; anti-FLAG beads, GFP-proteasome disassembly; hit rate 0.2% among 24,000; inhibition of disassembly, % (test concentration not listed);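 active means above 40%; inconclusive means likely self-fluorescent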;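 further: plate controls were ATP control with full disassembly for no effect and ATP-gamma-S intact proteasomes for full effect; higher percent means more bead fluorescence retained so stronger block of disassembly; stock transfer was 100 nL into about 10 µL; wells with too few beads may also be inconclusive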
* marks the source's active call; other numbers are inactive results; i = inactive; ? = inconclusive; . = not tested or not shown. An excerpt; rates above refer to the full screens.

SMILES	VCAM-1 up	26S disassembly
CC(C)OC(=O)CSc1nnnn1-c1ccc2c(c1)OCCO2	i	-0.5
Cc1cc(C)n(-c2nc3ccccc3nc2Nc2ccc3c(c2)OCO3)n1	.	0.8
COc1ccc(C(=O)NCc2nnc(SCC(=O)NCc3ccc(F)cc3)o2)cc1	.	-1.2
Cc1cccc(OCC(=O)NCc2ccncc2)c1C	.	-1.0
COc1ccc(C(=O)Nc2ccc(C)cn2)c(OC)c1	i	1.7
CC(NC(=O)C(C)(C)C)c1nc2ccccc2n1C (configuration not stated)	.	-1.6
CN1CCN(CCCNC(=O)CCCOc2cc(=O)n(C)c3ccccc23)CC1	.	0.2
C[C@@H]1CCC[C@H](C)N1NC(=O)c1ccc(Cl)c(S(N)(=O)=O)c1	i	-0.5
COc1ccc(CCNC(=O)c2ccc(CNc3c(N4CCOCC4)c(=O)c3=O)cc2)cc1OC	.	-1.5
CC(C)C(O)P(=O)(OCc1ccccc1)c1ccc(N(C)C)cc1 (configuration not stated)	.	0.3
Cc1cccc(OCC(=O)N2CCN(C(=O)Cc3ccccc3)CC2)c1	i	-0.1
CC(=O)Nc1ccc(-c2cn3cccnc3n2)cc1	.	2.7
CCOC(=O)N1CCN(S(=O)(=O)c2cccc3nonc23)CC1	.	-1.0
CCN(CC)CCCNC(=O)c1cc(-c2ccc(Cl)cc2)on1	.	0.2
Cc1nc2ncnn2c(C)c1CCC(=O)N1CCc2ccccc2C1	.	0.9
COc1ccc(CCNC(=O)CSc2nncn2N)cc1OC	i	0.5
COc1ccc(C(C)NC(=O)c2ccoc2C)cc1OC (configuration not stated)	i	2.7
CCOC(=O)CSC1=C(C#N)C(c2sccc2C)CC(=O)N1 (configuration not stated)	.	-3.4
Cc1nc2ncnn2c(C)c1CCC(=O)NC(C)c1ccc2c(c1)OCCO2 (configuration not stated)	.	0.9
Cc1ccc(CNS(=O)(=O)c2ccc3oc(C(=O)O)c(C)c3c2)cc1	.	-1.2
Cc1cc(C)c2c(n1)nn1c(N3CCOCC3)cc(C)nc21	i	-1.8
CCn1c(C(=O)NC(C)c2ccc3c(c2)OCCO3)cc2sccc21 (configuration not stated)	.	0.9
Cc1cc(=O)oc(C)c1C(=O)O	i	-1.3
COc1ccc(CNc2oc(-c3cccc4ccccc34)nc2C#N)cc1	i	0.8
Cn1c(C(=O)N2CCN(c3ccc(Cl)cc3)CC2)cc2c(=O)[nH]c3ccccc3c21	.	29
CCCC(=O)Nc1ccccc1-c1nnc(SC)[nH]c1=O	.	1.4
CCOC(=O)N1CCC(NC(=O)Cn2nc(-c3ccccc3)ccc2=O)CC1	.	-1.7
CN(Cc1ccccc1)c1oc(COc2ccccc2F)nc1C#N	.	0.0
CCOC(=O)C(C(C)=O)C(c1ccc(OC)cc1)C(C(C)=O)C(=O)OCC (configuration not stated)	.	-0.6
CCCn1c(N2CCN(CC(=O)NCc3cccs3)CC2)nc2ccccc21	i	2.1
O/N=C1\CCCCc2ccccc21	.	-1.5
Cc1ccc(-c2nc3s/c(=C\c4ccco4)c(=O)n3n2)cc1	.	6.3
Cc1nonc1NC(=O)OCCN1CCOC1=O	.	-1.1
CC1CCCCN1CCNC(=O)Cn1nc(-c2ccccc2)ccc1=O (configuration not stated)	.	-0.7
COc1ccc(NC(=O)CN2CCCCC2)cc1	i	-3.3
CCSc1nc2c(c(=O)[nH]1)C(c1ccccn1)C1=C(CC(C)(C)CC1=O)N2 (configuration not stated)	.	0.4
CCC(=O)N1CCc2cc(S(=O)(=O)N(CC)c3cccc(C)c3)ccc21	.	0.2
COP(C)(=O)c1c(C)nn(-c2ccccc2)c1C (configuration not stated)	i	-1.0
CCc1ccc(NC(=O)C2CC(=O)N(C(C)C)C2)cc1 (configuration not stated)	i	0.4
Cn1c(=O)cc(NCCc2ccccc2)[nH]c1=O	i	4.3

Overlap with the part before: 3 entries, followed by the next part.
SMILES	VCAM-1 up	26S disassembly
COP(C)(=O)c1c(C)nn(-c2ccccc2)c1C (configuration not stated)	i	-1.0
CCc1ccc(NC(=O)C2CC(=O)N(C(C)C)C2)cc1 (configuration not stated)	i	0.4
Cn1c(=O)cc(NCCc2ccccc2)[nH]c1=O	i	4.3
O=C(NC1c2ccccc2-c2ccccc21)c1ccco1	.	1.4
COC(=O)Cn1c2ccccc2c2nc(C)sc21	i	-1.6
COc1ccc(OC)c(NC(=O)CN2C(=O)C3(OCCCO3)c3ccccc32)c1	.	-6.8
COc1ccc(C2=NOC(C(=O)NCCCN3CCOCC3)C2)cc1 (configuration not stated)	i	-0.8
COc1ccc(-c2ccc(-c3noc(-c4cccs4)n3)c(OC)n2)cc1	i	?
COc1cc(C2CC(=O)N3CN(Cc4ccco4)CSC3=C2C#N)ccc1OCc1ccccc1 (configuration not stated)	.	1.2
O=C(Cn1c(=O)[nH]c2ccsc2c1=O)NC1CCCCCC1	i	-1.0
O=S(=O)(NCc1csc(-c2cccnc2)n1)c1ccc2c(c1)OCCO2	.	1.4
Fc1ccc(Br)cc1C1C=C(c2cccnc2)Nc2ncnn21 (configuration not stated)	.	-1.0
CN1C(=O)c2oc3ccccc3c(=O)c2C1c1ccccn1 (configuration not stated)	i	-0.8
O=C(CN(Cc1cccs1)C(=O)CNS(=O)(=O)c1ccccc1)NCc1ccco1	i	1.7
Cc1ccc(-c2noc(CN3C(C)CCCC3C)n2)cc1 (configuration not stated)	i	1.0
CCn1ccc(C(=O)Nc2ccc(N(C)C(C)=O)cc2)n1	.	-3.6
COc1c(Cl)cc(-c2noc(C)c2C(=O)NC(C)C)cc1Cl	.	-0.4
COc1cccc(OC)c1OCCCSc1nc(C)cc(=O)[nH]1	i	0.7
CCOCCCNC(=O)C(c1ccc(Cl)cc1)N1CCN(C(=O)c2ccco2)CC1 (configuration not stated)	.	0.1
CCCN1CCN(C(=O)C2CCN(S(=O)(=O)c3ccc4c(c3)oc(=O)n4C)CC2)CC1	.	4.8
CC(=O)c1c(C)[nH]c(C(=O)NCc2ccccn2)c1C	.	-2.4
CCN(CC)C(=O)C1CCN(S(=O)(=O)c2ccc(C3CNC(=O)C3)cc2)CC1 (configuration not stated)	.	-2.8
Cc1ccc(CNC(=O)c2coc(=O)c3ccccc23)o1	i	3.2
O=C1CN(C(=O)CN2CCCC2)C(c2ccccc2)c2cc(Br)ccc2N1 (configuration not stated)	i	3.3
Cc1ccc2c(c1)N(CCC(=O)NCCN1CCOCC1)C(=O)CO2	.	0.5
CCC(C)NC(=O)CS(=O)Cc1nc(-c2ccccc2C)oc1C (configuration not stated)	.	-1.5
CCCCN(C)C(=O)CCC(=O)Nc1ccc2nc(N3CCOCC3)cc(C)c2c1	.	-0.4
Cc1cccc2cc(C#N)c(NCCNC(=O)NC3CCCCC3)nc12	i	-26
COc1cccc(C2=CC(c3ccc(OC)c(OC)c3OC)n3nnnc3N2)c1 (configuration not stated)	.	0.3
O=C(CSc1nnc(-c2cccs2)o1)NCC1CN(Cc2ccccc2)CCO1 (configuration not stated)	i	7.3
O=c1cc(NCC2CCCO2)[nH]c(=O)n1-c1ccc(Cl)cc1 (configuration not stated)	.	0.6
CCCS(=O)(=O)N1CCC(C(=O)N2CCOCC2)CC1	.	-0.2
CCCCn1c(NC(=O)CC)c(C#N)c2nc3ccccc3nc21	i	6.7
CCn1ncc(C2=NOC(C(=O)Nc3cc(OC)c(Cl)cc3OC)C2)c1C (configuration not stated)	.	-1.3
CCOc1ccc(OCC)c(NC(=O)CC2Oc3ccccc3NC2=O)c1 (configuration not stated)	.	30
COCC(=O)N(Cc1cc2cc(OC)ccc2[nH]c1=O)c1ccccc1	i	0.2
O=C(NCCC1=CCCCC1)C1CCN(C(=O)Nc2ccccc2)CC1	i	0.2
COc1ccc(OC)c(C2=NOC(C(=O)NCCN3CCOCC3)C2)c1 (configuration not stated)	i	0.8
O=C(CCN1C(=O)C2C3C=CC(C3)C2C1=O)NCCc1ccccc1Cl (configuration not stated)	i	0.0
O=C(NCc1cccs1)C(Cc1ccccc1)NS(=O)(=O)c1cccs1 (configuration not stated)	i	4.4
CCS(=O)(=O)N1CCCC(C(=O)NC2CCCC2)C1 (configuration not stated)	.	-0.4
CC(=O)c1ccc(OCC(O)CN2CCOCC2)cc1 (configuration not stated)	.	3.5
Cn1c(-c2ccccc2)cc(=O)c2ccccc21	i	0.1

As entered above.
COCC(=O)N(Cc1cc2cc(OC)ccc2[nH]c1=O)c1ccccc1 in 26S disassembly has 0.2
O=C(NCCC1=CCCCC1)C1CCN(C(=O)Nc2ccccc2)CC1 in 26S disassembly has 0.2
O=C(NCc1cccs1)C(Cc1ccccc1)NS(=O)(=O)c1cccs1 (configuration not stated) in 26S disassembly has 4.4
CCS(=O)(=O)N1CCCC(C(=O)NC2CCCC2)C1 (configuration not stated) in 26S disassembly has -0.4
O=C(CCN1C(=O)C2C3C=CC(C3)C2C1=O)NCCc1ccccc1Cl (configuration not stated) in 26S disassembly has 0.0

Next records:
SMILES	VCAM-1 up	26S disassembly
Cc1ccc(S(=O)(=O)N2CCN(C(=O)CSC3CCCC3)CC2)c(C)c1	i	0.0
CC(C)NC(=O)c1ccc2c(c1)nnn2C	i	-0.3
CCOc1ccc2nc(N3CCC(C(=O)N4CCN(c5ncccn5)CC4)CC3)sc2c1	.	-0.4
Cc1onc(-c2ccccc2)c1C(=O)N[C@@H]1C(=O)N2[C@@H]1SC(C)(C)[C@@H]2C(=O)O	i	-0.2
O=C1CSc2ccccc2N1Cc1ccccc1F	.	2.2
CC1(C)Cc2c(C#N)c(NC3CCCCC3)nc(-c3ccco3)c2CO1	.	4.0
COCCCN(C(=O)Nc1ccc(C)c(C)c1)C(C)c1ccccn1 (configuration not stated)	.	-2.1
CC1(C)CNC(=O)CC(C)(C)N1O	i	3.0
O=C(Nc1ccc(S(=O)(=O)NC2CCCC2)cc1)c1cnccn1	i	0.5
Nc1nc2n(n1)C(c1ccccc1)CC(c1ccc(F)cc1)N2 (configuration not stated)	.	-0.1
CCOC(=O)Cn1c(=O)oc2cc(S(=O)(=O)NCc3cccs3)ccc21	.	2.6
CC(C)(C)c1n[nH]c(=S)n(N)c1=O	.	-0.9
COc1ccc(NC(=O)CSc2nccn2-c2ccccc2)cc1	.	1.1
O=C(C1CC1)N(Cc1ccco1)c1nc(-c2ccccc2)cs1	i	-1.6
CCCCOC(=O)NCN1C(=O)C2C3C=CC(C3)C2C1=O (configuration not stated)	.	0.3
O=C(Cc1cccs1)N(c1ccccc1)C1C=CS(=O)(=O)C1 (configuration not stated)	i	1.0
Cc1cccc(C)c1NC(=O)C1(NC(=O)c2cnccn2)CCCCC1	.	-1.2
CCOc1ccc(N(CCC#N)S(=O)(=O)c2ccc(OC)cc2)cc1	.	-3.8
COc1ccc(CCNC(=O)C2(C)CCC(=O)N2CCC(C)C)cc1OC (configuration not stated)	.	-0.5
CC(C(=O)Nc1ccccc1-c1ccccc1)N1CCOCC1 (configuration not stated)	i	-1.1
O=c1c2ccccc2[nH]c(=S)n1C1CCCCC1	.	-0.8
CCOC(=O)N1CCN(C(=O)CCc2ccc(S(=O)(=O)NCCc3ccccc3)cc2)CC1	i	-2.1
CCc1ccc(CN(C)CCc2ccccn2)cc1	i	-1.8
Brc1ccc2[nH]ncc2c1	i	0.7
CCn1c(=NC(=O)c2ccc(S(=O)(=O)N3CCOCC3)cc2)sc2cccc(OC)c21	.	1.1
CCOC(=O)c1cc(-c2ccccc2)n(CC(=O)N2CCCC2)c1C	.	1.5
COC(=O)c1ccccc1NC(=O)Nc1nnc(N2CCCCC2C)s1 (configuration not stated)	.	-0.3
CCOc1ccc(C2CC(c3cccc(OC)c3)Nc3nc(N)nn32)cc1 (configuration not stated)	i	-0.4
CC1(C)OC(C(N)=O)C(C(N)=O)O1 (configuration not stated)	.	0.7
COc1ccc(-n2c(CNC(=O)c3ccc(S(=O)(=O)N4CCCC4)cc3)n[nH]c2=S)cc1	.	3.0
O=C(Cc1c(C(=O)O)[nH]c2ccccc12)NCCN1CCN(c2cccc(Cl)c2)CC1	.	2.3
CC1CCc2cc(F)cc3c(O)c(C(=O)NCC4CCCO4)c(=O)n1c23 (configuration not stated)	i	-1.2
O=S(=O)(NC1CCCCCC1)c1cccc2cccnc12	.	-0.5
CC(=O)c1cc2cc(O)ccc2o1	.	-0.1
NC(=O)c1cccn1Cc1ccccc1Cl	.	2.3
Cc1cc(NCC2CCCO2)n2c(nc3ccccc32)c1C#N (configuration not stated)	i	0.6
Cc1ccc(N(C)C(=O)N2CCN(S(=O)(=O)c3ccc(C)cc3)CC2)cc1	.	0.6
CC(C)CN(CCCNC(=O)CC1Oc2ccccc2NC1=O)CC(C)C (configuration not stated)	.	0.4
COc1ccc(NC(C)=O)cc1NC(=O)CN1CCN(CC(=O)Nc2ccccc2Cl)CC1	.	-2.0
CCOC(=O)CN(Cc1ccccc1)S(=O)(=O)c1ccc(NC(C)=O)cc1	.	-2.0
CCCSc1ncnc2c1oc1ccccc12	.	1.1
O=C(NCCCN1CCCCCC1)c1ccc(N2CCCC2=O)cc1	.	-0.5

Compound profiles, as listed above. Order of screens: VCAM-1 up	26S disassembly
Entry for CC(=O)c1cc2cc(O)ccc2o1 = .	-0.1
Entry for CCOC(=O)CN(Cc1ccccc1)S(=O)(=O)c1ccc(NC(C)=O)cc1 = .	-2.0
Entry for Cc1ccc(N(C)C(=O)N2CCN(S(=O)(=O)c3ccc(C)cc3)CC2)cc1 = .	0.6
Entry for CC(C)CN(CCCNC(=O)CC1Oc2ccccc2NC1=O)CC(C)C (configuration not stated) = .	0.4
Entry for O=C(NCCCN1CCCCCC1)c1ccc(N2CCCC2=O)cc1 = .	-0.5
